RE007 growth inh: qHTS Assay for Inhibitors of the HIV-1 protein Vpr; S. pombe RE007 Vpr strain, BacTiter-Glo ATP luminescence, 24 h; control for the full effect not named in the record; Potency, µM (top dose mostly 92.2 µM), inactives show top-dose activity change, negative = less growth; actives 0.21% (n = 360,000); active = well fitted falling curve with a large enough effect; inconclusive = small, poorly fitted or top-dose-only effect; inactive = no such curve, though single readings can be large or run the other way;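 also: nearly all actives have a fitted effect of over 50% in size; the assay follows cell death caused by Vpr and the record does not say whether a fall means rescue or toxicity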
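Fission yeast strain RE007, carrying one chromosomally integrated HIV-1 vpr copy, was seeded at OD 0.01 in PMG+AL medium with 23 nL pinned compound. After 24 h at 30 °C and 99% humidity, viability was read by BacTiter-Glo luminescence.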
StopGo reporter: High Throughput Screening for Foot and Mouth Disease Virus Antivirals; actives 1.2% (n = 410,000); human cells with a luciferase reporter of 2A StopGo recoding; control for the full effect not named in the record; Potency, µM (highest dose often 57.9 µM), inactives show at the top dose signal change, negative = less light; active = well fitted falling curve with a large enough effect; inconclusive = small, poorly fitted or top-dose-only effect; inactive = no such curve, though single readings can be large or run the other way; tested in HEK293T cells; also: nearly all actives have a fitted effect of over 45% in size; luciferase light after 4 h
* hit, by the source's call; ? = inconclusive; [ ] = another dose, or the depositor's remark. % is scaled to controls: 0 for no effect and ±100 for the full control effect; potency is read from the fitted curve at half-maximal effect. An excerpt, so the mix of outcomes need not match the whole.

Sample of the layout, 5 compounds:
SMILES | RE007 growth inh | StopGo reporter
CCC(C)[C@H]1CN=C(N)N1CCc1cccc2ccccc12 (stereo partly drawn) | 4% | ?
CCOc1ccc(C(=O)CCC(=O)NCC(=O)Nc2ccc(F)c(F)c2F)cc1 | 0% | -13%
O=C(NCc1cc(Cl)cc(Cl)c1)c1csc([C@@H]2O[C@H](CO)[C@H](O)[C@H](O)[C@H]2O)n1 | 9%[18.4 µM] | -9%
CC1(C(=O)Nc2ccc3ccccc3c2)CCC(=O)N1C1CCN(Cc2ccccc2)CC1 (stereo not drawn) | -11% | -8%
CCOC(=O)c1cc(-c2sc(NC(=O)c3ccccc3)nc2C)n(Cc2ccccc2)n1 | 2% | ?

The whole of this part, from the first entry:
SMILES | RE007 growth inh | StopGo reporter
CCC(C)[C@H]1CN=C(N)N1CCc1cccc2ccccc12 (stereo partly drawn) | 4% | ?
CCOc1ccc(C(=O)CCC(=O)NCC(=O)Nc2ccc(F)c(F)c2F)cc1 | 0% | -13%
O=C(NCc1cc(Cl)cc(Cl)c1)c1csc([C@@H]2O[C@H](CO)[C@H](O)[C@H](O)[C@H]2O)n1 | 9%[18.4 µM] | -9%
CC1(C(=O)Nc2ccc3ccccc3c2)CCC(=O)N1C1CCN(Cc2ccccc2)CC1 (stereo not drawn) | -11% | -8%
CCOC(=O)c1cc(-c2sc(NC(=O)c3ccccc3)nc2C)n(Cc2ccccc2)n1 | 2% | ?
C#CCNC(=O)C1=C[C@@H](c2ccc3c(c2)OCO3)C[C@@H](OCCCCO)O1 | -3% | 19%
CS(=O)(=O)c1ccc(C2=C(CNC(=O)c3nccs3)[C@H]3CC[C@@H](C2)N3CCOc2ccccc2)cc1 | 6% | -10%
Cc1ccc2nc(-c3ccccn3)c(N)n2c1 | ? | 14µM*
O=C(NC1CCCCC1)C(CCc1ccccc1)n1c(=O)c(-c2ccccc2)nc2ccccc21 (stereo not drawn) | -5% | 5%
COc1ccc(C(=O)C(=O)N2CCN(c3ccc(C)cc3)CC2)cc1OC | 0% | -12%
CC1(C)CCC(=O)N2CC[C@H]3c4cc5ccccc5nc4C[C@@H]1[C@H]32 | -17% | -20%
Cc1ccc(NC(=O)C2(C)CCN2CCc2ccccc2)cc1 (stereo not drawn) | 2%[18.4 µM] | -18%
O=C1CC[C@@H]2CC3(C[C@@H]4CCN1[C@H]24)Nc1ccccc1NC3=NC1CCCCC1 (stereo partly drawn) | -2% | -16%
CCCOc1ccc(F)cc1-c1cc(C(=O)Nc2ccc(OC)c(OC)c2)[nH]n1 | -1% | -12%
CC(C)C[C@@H](CN1CCC[C@H]1CN1C(=O)C(=O)NC[C@@H]1Cc1ccc(O)cc1)N1C[C@H](Cc2ccccc2)N(CC2CCCCCC2)C(=O)C1=O | 14% | 32%[activator]
O=C(NCc1ccc2c(c1)OCO2)C(=O)NCC1OCCCN1S(=O)(=O)c1ccccc1 (stereo not drawn) | -5% | -16%
CC1(C(=O)NC2CCN(Cc3ccccc3)CC2)CCN1CCc1ccccc1 (stereo not drawn) | -9% | 0%
CC(C)OCCCNC(=S)N1CCC(C(=O)c2ccc(F)cc2)CC1 | -10% | -8%
CCCc1nc2c(C)cc(Br)cn2c1Cc1ccccc1 | ? | 0%
CC1(c2nnnn2Cc2ccccc2)CCC(=O)N1Cc1cccs1 (stereo not drawn) | 3% | -21%
CCCCN(C)C(=O)c1[nH]c(C(F)(F)F)nc1-c1ccccc1 | -7% | -18%
Cc1ccc(S(=O)(=O)N2CCC(=O)N([C@H](COCc3ccc(Cl)c(Cl)c3)Cc3ccccc3)CC2)cc1 | 8% | -20%
OCc1nc2ccccc2n1CCCc1ccccc1 | -4% | -9%
COc1ccc(/C=C(/NC(=O)c2ccc(Br)cc2)C(=O)Nc2cccc(C(=O)O)c2)cc1 | -1% | 12%
COc1cc(CNc2ncnc3c2ncn3[C@H]2CN(Cc3cccc4ccccc34)C[C@@H](CO)O2)cc(OC)c1OC | 69%[18.4 µM] | ?

Whole records, quoted from the list. Order of values: RE007 growth inh	StopGo reporter
Record of O=C1CC[C@@H]2CC3(C[C@@H]4CCN1[C@H]24)Nc1ccccc1NC3=NC1CCCCC1 (stereo partly drawn) : -2%	-16%
Record of CCCOc1ccc(F)cc1-c1cc(C(=O)Nc2ccc(OC)c(OC)c2)[nH]n1 : -1%	-12%
Record of O=C(NCc1ccc2c(c1)OCO2)C(=O)NCC1OCCCN1S(=O)(=O)c1ccccc1 (stereo not drawn) : -5%	-16%
Record of CC1(c2nnnn2Cc2ccccc2)CCC(=O)N1Cc1cccs1 (stereo not drawn) : 3%	-21%
Record of Cc1ccc(S(=O)(=O)N2CCC(=O)N([C@H](COCc3ccc(Cl)c(Cl)c3)Cc3ccccc3)CC2)cc1 : 8%	-20%

Back to the main list, repeating the five entries before the break.
SMILES | RE007 growth inh | StopGo reporter
CCCCN(C)C(=O)c1[nH]c(C(F)(F)F)nc1-c1ccccc1 | -7% | -18%
Cc1ccc(S(=O)(=O)N2CCC(=O)N([C@H](COCc3ccc(Cl)c(Cl)c3)Cc3ccccc3)CC2)cc1 | 8% | -20%
OCc1nc2ccccc2n1CCCc1ccccc1 | -4% | -9%
COc1ccc(/C=C(/NC(=O)c2ccc(Br)cc2)C(=O)Nc2cccc(C(=O)O)c2)cc1 | -1% | 12%
COc1cc(CNc2ncnc3c2ncn3[C@H]2CN(Cc3cccc4ccccc34)C[C@@H](CO)O2)cc(OC)c1OC | 69%[18.4 µM] | ?
O=C(Nc1ccccc1Cl)c1cc(C2CCCN(C(=O)CCCc3ccccc3)C2)on1 (stereo not drawn) | -5% | 0%
CC1=C(C(=O)N(C(C)C)C(C)C)CC(CC(=O)NCc2cccs2)C(=O)N1Cc1ccc(C(C)(C)C)cc1 (stereo not drawn) | 19% | -13%
CCc1nc2ccc(C(=O)Nc3cccc(NS(C)(=O)=O)c3)cn2c1N(CC)Cc1cccc(Br)c1 | -8% | ?
CCOC(=O)C1CCCN(C(=O)c2cc(C(C)(C)C)nn2C)CC1 (stereo not drawn) | 6%[18.4 µM] | -9%
C[C@H]1CN([C@@H](C)CO)C(=O)CCCn2nncc2CO[C@@H]1CN(C)C(=O)c1ccncc1 | 6% | -20%
Cc1cccc(C)c1NC(=O)C(c1ccccc1)N1CCN(C)CC1 (stereo not drawn) | 6% | -8%
O=C(NC1CCCCC1)N1Cc2cc(N3CCCCC3)ccc2-n2nncc2C1 | -11% | -6%
COc1cccc(-c2cnc3c(NC=O)cc(-c4ccncc4)cn23)c1 | 0%[18.4 µM] | -19%
COC(=O)[C@@]12C[C@@H](CC(=O)N3CCOCC3)C(=O)N(CCc3ccc(OC)c(OC)c3)C1=CCC(C)(C)C2 | 0% | -4%
C#CCN(C[C@H]1[C@H](OC(=O)NCc2ccco2)[C@H](OC(=O)NCc2ccco2)C[C@@H](C(=O)OC)[C@H]1C(=O)OC)S(=O)(=O)c1ccc(C)cc1 | 12% | -28%
C=CCn1nc(C(=O)Nc2ccc(OC)cc2)cc1-c1sc(NC(=O)c2ccccc2)nc1C | -1% | -24%
C=CCNc1ncnc2c1ncn2[C@H]1CN(Cc2ccccc2)C[C@@H](CO)O1 | -2% | -17%
CN(C)c1ccc(-c2ccnc3c2CC(C)(C(=O)Nc2ccc4c(c2)OCO4)O3)cc1 (stereo not drawn) | 5% | -6%
COc1cc(OC)nc(Nc2nc(C(N)Cc3ccc(C(F)(F)F)cc3)cs2)n1 (stereo not drawn) | -6%[18.4 µM] | -23%
COc1ccc(C2=CCCCCC2)cc1OC | -11% | 20%
COc1ccc(CNC(=O)[C@@H]2CC=C[C@@H]3CCN(C4CCCCC4)C(=O)[C@@H]32)cc1 | -11% | 4%
CCN(C(=O)COC(=O)CCCc1c[nH]c2ccccc12)c1c(N)n(Cc2ccccc2)c(=O)[nH]c1=O | -8% | -6%
CCN1C[C@@H]2[C@@H]3C(=O)N(Cc4ccccc4)C(=O)[C@@H]3[C@](Cc3ccccc3)(C1=O)N2C(=O)c1ccc(C(F)(F)F)cc1 | -5% | -1%
CCCCCCCCN1C(=O)[C@H](CC(=O)NCc2cccc3ccccc23)C[C@@]2(C(=O)OCC)CCC=C12 | -5% | ?
C/C=C1\CN2[C@H]3C[C@@]45c6ccccc6N(C)[C@H]4[C@@H]2CC1C3[C@H]5O (stereo partly drawn) | 9% | -18%
CC1(C)S[C@@H]2[C@H](NC(=O)[C@H](N)c3ccccc3)C(=O)N2[C@H]1C(=O)OC1OC(=O)c2ccccc21 (stereo partly drawn) | 46%[18.4 µM] | -13%
CC(=O)NC(c1ccc(F)c(F)c1)c1nc(-c2ccc3c(c2)OCO3)cs1 (stereo not drawn) | 1% | -22%
C=CCOC(=O)C1=C[C@H](c2coc3ccccc3c2=O)C[C@H](OCCCCO)O1 | 12% | 2%
CC(=O)Nc1ccc(CNc2nc3cc(-c4ccc(F)cc4)sc3c(=O)n2C)cc1 | 16% | -6%
O=C1NC[C@H](Cc2ccc(O)cc2)N(C[C@@H]2CCCN2C[C@H](Cc2ccccc2)N2C[C@H](Cc3ccccc3)N(CC3CCCCC3)C(=O)C2=O)C1=O | -11% | 22%

Carrying on:
SMILES | RE007 growth inh | StopGo reporter
O=C1NC[C@H](CCCCN2C[C@@H](Cc3ccccc3)N(CC3CCCCC3)C(=O)C2=O)N(CCC2CCCCC2)C1=O | 6% | -3%
CCc1cccc(CC)c1N1C(=O)CC(Sc2ccccc2N)C1=O (stereo not drawn) | -13% | -23%
O=C(C1CCCCC1)N1C[C@H](n2cc(C3CC3)nn2)[C@@H](O)C[C@@H]1c1ccccc1 | 0% | -19%
CCC(c1nnnn1C1CCCC1)N1CCC2(CC1)C(=O)NCN2c1ccccc1 (stereo not drawn) | -2% | -12%
Cc1ccccc1S(=O)(=O)NC(=O)C1(C)CCN1C(=O)CCc1ccccc1 (stereo not drawn) | 3% | 14%
CCCNC(=O)C[C@H]1CC[C@@H]2[C@H](COC[C@@H](O)CN2C(=O)c2ccccn2)O1 | 9% | -17%
O=C(Nc1ccccc1N1CCOCC1)c1cccc2ccccc12 | -24% | ?
CC(=O)Nc1ccc(CN2CCC2(C)C(=O)NC2CCN(Cc3ccccc3)CC2)cc1 (stereo not drawn) | -9%[18.4 µM] | -17%
Cc1ccc(S(=O)(=O)NN=C2CC(C)(C)OC2(C)C)cc1 | 13% | 22%
CCN1C(=O)N[C@@H](c2cccc(C(F)(F)F)c2)[C@H](C(=O)OC)[C@H]1C | 3% | -19%
CC1(C(=O)NS(=O)(=O)c2cccc(Cl)c2)CCN1C(=O)CCc1ccc(Cl)cc1Cl (stereo not drawn) | -8% | -5%
O=C(CN1CCN(S(=O)(=O)c2ccc(Cl)c(C(F)(F)F)c2)CC1)NC(=O)NC1CCCCC1 | -1% | ?
COc1ccc(C(O)c2nc(-c3cc(F)cc(Cl)c3)cs2)cc1 (stereo not drawn) | 13%[18.4 µM] | -14%
CC1(C(=O)NS(=O)(=O)c2cccc(Cl)c2)CCN1C(=O)Cc1ccsc1 (stereo not drawn) | -3% | 13%
COc1cccc(OC)c1C(=O)OCC(=O)NCCNC(=O)COC(=O)c1c(OC)cccc1OC | 3% | -9%
CCN(CC)C(=O)C1=C(C)N(Cc2ccc(F)cc2)C(=O)C(CC(=O)NCc2cccc3ccccc23)C1 (stereo not drawn) | 9% | -10%
COC(=O)C1(C(=O)OC)C[C@H](/C=C/c2ccccc2)N(Cc2ccccc2OC)[C@@H]1c1cccc(Br)c1 | 0% | -22%
O=C(CN1CCN(C(=O)c2ccc(-c3nc4ccccc4s3)o2)CC1)Nc1cccc(F)c1 | -13% | -14%
Cc1ccc(C(=O)N/N=C/c2cccnc2)cc1Cl | -14% | 44%[activator]
CNc1cnc(-c2ccc(O)c(OC)c2)cn1 | -9% | 6%
COc1ccc(Br)cc1C1=CC(=O)C[C@H](c2ccc(F)cc2)C1 | -5% | -18%
CC(C)Cc1ccc(-c2cc3nc(NCCOc4ccccc4)ccn3n2)cc1 | -1%[18.4 µM] | 31%[activator]
COc1ccccc1-c1csc(C(O)c2cccc(Cl)c2)n1 (stereo not drawn) | -18% | -17%
COC(=O)C1CCN(S(=O)(=O)c2c[nH]c(=O)[nH]c2=O)CC1 | -1% | -17%
CC1(C(=O)NS(=O)(=O)c2cccc(Cl)c2)CCN1C(=O)CC1CC1 (stereo not drawn) | 122% | -20%
CN1CCC(C)(C(=O)Nc2cccc3c2CCCC3)C1 (stereo not drawn) | -2% | -23%
CCC(CC)C(C(=O)NCc1ccccc1)N(C)Cc1ccc(Cl)c(Cl)c1 (stereo not drawn) | -14% | ?
COc1ccc(CN2C[C@@H](CO)O[C@@H](n3cnc4c(N(C)C)ncnc43)C2)cc1 | -3% | -2%
O=C(CCCc1ccccc1)NCCS(=O)(=O)N1CCN(c2ccccc2)CC1 | 16% | -28%
COc1cccc(-c2cnc(C(O)c3ccc(SC)cc3)[nH]2)c1 (stereo not drawn) | -19% | 16%
